Screens (PubChem)
GLA inh pH 4.5: alpha-galactosidase A (human) inhibition, pH 4.5; P06280; activity change, negative = inhibition, % at 105 µM; AID 1467; purified enzyme, 4-MU-alpha-Gal fluorescence, pH 4.5; 230,000 tested, under 10 active; inconclusive = small, poorly fitted or top-dose-only inhibition, or a rising curve; inactive = flat fitted curve, though single readings scatter; no compound was filed as active;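 also: 0% = full activity with enzyme and -100% = basal without enzyme; dose as in the result columns while the protocol names 77 µM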
Target sequence (P06280 whole entry, looked up): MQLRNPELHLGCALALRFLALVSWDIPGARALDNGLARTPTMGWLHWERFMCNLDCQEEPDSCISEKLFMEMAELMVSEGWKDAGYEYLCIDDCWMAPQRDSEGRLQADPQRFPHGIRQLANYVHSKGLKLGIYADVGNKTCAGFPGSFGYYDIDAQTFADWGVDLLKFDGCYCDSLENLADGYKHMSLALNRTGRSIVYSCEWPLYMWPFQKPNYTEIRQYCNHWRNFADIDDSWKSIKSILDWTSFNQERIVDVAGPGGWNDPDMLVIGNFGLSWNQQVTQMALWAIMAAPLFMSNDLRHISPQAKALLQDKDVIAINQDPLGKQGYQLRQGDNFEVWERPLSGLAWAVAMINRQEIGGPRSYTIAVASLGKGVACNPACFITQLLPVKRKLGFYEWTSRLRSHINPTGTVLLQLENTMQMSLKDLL
Active calls of the source: *; & = joins results of further samples. The list is partial (hit frequency here may not be typical).

mol	GLA inh pH 4.5
COC1OC(CO)C(OC2OC(C(=O)O)C(OC3OC(COS(=O)(=O)O)C(OC4OC(C(=O)O)C(OC5OC(CO)C(OC6OC(C(=O)O)C(OC7OC(COS(=O)(=O)O)C(OC8OC(C(=O)O)=C[C@H](O)C8OS(=O)(=O)O)C(O)C7NC(C)=O)[C@@H](O)C6O)C(O)C5NC(C)=O)[C@@H](O)C4O)C(O)C3NC(C)=O)[C@@H](O)C2O)C(O)C1NC(C)=O (some centres undefined)	1
COc1ccc(C2=N[C@H](c3ccccc3)CO2)cc1	2
Oc1cc2c(cc1O)[C@H](c1ccccc1)CNCC2	-5
CCN(CC)CCCC(C)Nc1ccnc2cc(Cl)ccc12 (centres undefined)	-4&-4
COc1ccccc1-c1cc(=O)c2cc(O)ccc2o1	4
CC1CC[C@@]2(OC1)OC1CC3C4CC[C@@H]5CC(O)CC[C@@]5(C)C4CC[C@]3(C)C1C2C (some centres undefined)	10
CCN(CC)[C@@H](C)CN1c2ccccc2Sc2ccccc21	-2
COC(=O)[C@@H](NC(=O)O[C@@H]1C(=O)c2cc(Br)ccc2O[C@H]1c1ccc2c(c1)OCO2)C(C)C	2
O=C(O)COc1ccc(C(=O)c2cccs2)c(Cl)c1Cl	-5
COC(=O)C=P(c1ccccc1)(c1ccccc1)c1ccccc1	-3
O=C(O)Cc1cc(I)c(Oc2cc(I)c(O)c(I)c2)c(I)c1	6
COC(=O)NC1C=CCCC1C(C)=O (centres undefined)	0
COc1ccc(C2COc3c(ccc(O)c3OC)C2)c(OC)c1O (centres undefined)	1
C=C(C)C(=O)/C=C/c1ccc(C(F)(F)F)cc1	-1
CNC(=O)[C@@H](Cc1ccccc1)N(C)C(=O)[C@@H](Cc1ccc2ccccc2c1)N(C)C(=O)/C=C/CC(C)(C)N	-5
COc1cc(N)c(Cl)cc1C(=O)CCC1CCN(CCNS(C)(=O)=O)CC1	-1
CC(C)(C)OC(=O)NCCCCC1=CC2=CC(=O)C(C)(OC(=O)c3cccs3)C(=O)C2=CO1 (centres undefined)	-6
COc1ccc2c(c1)OC[C@H]1c3cc4c(cc3O[C@@H]21)OCO4	1
C=CCCCCCCCCCCCC(O)CC(O)CO (centres undefined) (tested in a mixture with another compound)	-6
CC(N)=NCCCC[C@H](N)C(=O)O	-2
COc1cc(-c2ccc(N=Nc3ccc4c(S(=O)(=O)O)cc(S(=O)(=O)O)c(N)c4c3O)c(OC)c2)ccc1N=Nc1ccc2c(S(=O)(=O)O)cc(S(=O)(=O)O)c(N)c2c1O	3&6
Cc1ccc(S(=O)(=O)N2CCC(=O)N([C@H](COCc3ccc(Cl)cc3)Cc3ccccc3)CC2)cc1	-5
CC/C=C\C[C@H](O)/C=C/C=C\C/C=C\C/C=C\CCCC(=O)O	1
OC[C@@H]1O[C@@H](n2cnc3c(NC4CCCC4)ncnc32)[C@H](O)[C@H]1O	-4
CCCn1c(C)nc2c(NC(C)CCCN(CC)CC)nc(C)nc21 (centres undefined)	-2
Cc1cc2c3c(cccc3n1)C(=O)c1ccccc1-2	-9
O=c1cc(-c2ccccc2)[nH]c2ccc(Cl)cc12	-17
Nc1c(S(=O)(=O)O)cc(Nc2ccc(Nc3nc(Cl)nc(Nc4ccc(S(=O)(=O)O)cc4)n3)c(S(=O)(=O)O)c2)c2c1C(=O)c1ccccc1C2=O	0
N#CCCCS(=O)(=O)c1nnnn1-c1ccc(F)cc1Br	1
O=C(O)c1ccc(NS(=O)(=O)c2ccsc2C(=O)O)cc1	-2
C=CCNC(=O)c1cc([N+](=O)[O-])cc2c(=O)[nH]c(Nc3ccc(Cl)c(Cl)c3)nc12	7
Cc1ccc2c(c1)c1c3n2CCN[C@H]3CCC1	-10&5
COc1cc(O)ccc1C(C)=O	6
NCCC[C@@H](CC(=O)N[C@@H]1CCCC[C@H]1C(=O)N[C@H](CC(=O)N[C@@H](CCC(=O)O)CC(=O)O)Cc1c[nH]c2ccccc12)NC(=O)C[C@H](Cc1ccccc1)NC(=O)[C@@H]1CNCC[C@H]1N	-4
CCC(=O)OCC(=O)[C@@]1(OC(=O)CC)[C@H](C)C[C@@H]2[C@@H]3[C@H]([C@@H](O)C[C@@]21C)[C@]1(C)C=CC(=O)C=C1C[C@@H]3Cl	6
CC(C)NC(=O)[C@@H]1C[C@H]1[C@@H](NC(=O)OCc1ccccc1)c1ccccc1	-4
CN(C)Cc1ccccc1-c1cc(Nc2ccccc2)ncn1	2
C[C@@H](CCc1ccc(O)cc1)NCCc1ccc(O)c(O)c1	2&-2
CCOc1ccccc1-c1ccc(C(=O)O)s1	-7
COC(=O)C(C(C)=O)C1c2ccccc2C=C(C)N1C(=O)OC (centres undefined)	7
Cc1cc(O)c(C(C)C)cc1Cl	-3
C[C@@H](C(=O)NCc1ccc(C(F)(F)F)nc1)[C@H]1C[C@]1(C)[C@H](NC(=O)OCc1ccccc1)c1ccccc1	-12
Nc1ccccc1C(=O)/C=C/c1ccccc1	0
C=CCOC(=O)NC(c1ccc(F)c(F)c1)S(=O)(=O)c1ccc(Cl)cc1 (centres undefined)	-2
O=C(O)CCCC[C@@H]1CCSS1	0
CC(=O)c1ccc[nH]1	6
COC(=O)[C@H]1C[C@@H]1[C@H](NC(=O)c1cc(C)nn1C)c1ccccc1	-1
CC(=O)NC(C(=O)O)C(C)(C)SN=O (centres undefined)	1
CCOC(=O)CNC(=O)O[C@@H]1C(=O)c2cc(OC)ccc2O[C@H]1c1cccc(OC)c1	-6
Cc1ccc2c(c1)C(N1CCN(C)CC1)=Nc1cccnc1N2	-2
CNC(=O)C1(C)C=CCN1C(=O)OC (centres undefined)	-1
CC1(C)SC2C(N3C(=O)C(c4ccccc4)NC3(C)C)C(=O)N2C1C(=O)O (centres undefined)	6
COc1ccc(-c2nc3c(c4c2C[C@H](c2ccccc2)OC4)CN(C(=O)NCCc2c[nH]c4ccccc24)CC3)c(C)c1	1
C[C@@](N)(Cc1ccc(O)cc1)C(=O)O	-17
C[C@@H](C(=O)Nc1ccc2ccccc2c1)[C@H]1C[C@]1(C)[C@H](NS(=O)(=O)c1ccc2ccccc2c1)c1ccccc1	-6
C[C@@]1(C(=O)O)NCCc2cc(O)c(O)cc21	-6
CCCn1c(C)nc2c(N3CCCN(Cc4ccccc4)CC3)nc(C)nc21	-1
C[C@H]1/C=C\CC(=O)NCc2cccc(c2)CNC(=O)N[C@H]1c1ccccc1	-2
COC(=O)[C@H]1Cc2c([nH]c3ccccc23)CN1C(=O)COc1ccc2c(C)cc(=O)oc2c1	4
N#Cc1cccc(-c2nc(N3CCNCC3)c3ccccc3n2)c1	0

Next part:
mol	GLA inh pH 4.5
NCCC[C@H](N)CC(=O)N[C@H]1CNC(=O)[C@@H]([C@@H]2C[C@H](O)N=C(N)N2)NC(=O)/C(=C/NC(N)=O)NC(=O)[C@@H](CO)NC(=O)[C@@H](CO)NC1=O	11
CC[C@]12CCCN3CCc4c(n(c5ccccc45)C(=O)C1)[C@H]32	-8
O=C(O)c1sccc1S(=O)(=O)Nc1ccccc1N1CCCCC1	0
CC(C)C[C@H](NC(=O)C1OC1C(=O)O)C(=O)NCCCCN=C(N)N (some centres undefined)	-9
Cc1cc(O)c(C)c2c1CC[C@H]1[C@H](C)C(=O)O[C@H]21	-7
CCC/C=C(\CCC)C(NC(=O)c1ccco1)c1ccc(C(=O)OC)cc1 (centres undefined)	-7
Cl/C(=C\n1cncn1)c1ccc(Cl)cc1Cl	2
CCC(CC)(CC(=O)Nc1cccc(/C=C/c2nc(C3CCC3)cs2)c1)C(=O)O	-5
O=C1C(O)=C(O)C(=O)C(O)=C1O	-10&11
C=C1C(=O)OC2C1CC/C(C)=C/CCC1(C)OC21 (centres undefined)	9
COC(=O)[C@H]1CC=C[C@H]2CCN(Cc3ccc(Cl)c(Cl)c3)C(=O)[C@@H]12	-15
COc1ccc2c(c1)O[C@@H](c1cccc(C(F)(F)F)c1)[C@H](OC(=O)NCc1ccco1)C2=O	-2
C[C@@H](O)CCC[C@H](O)/C=C/[C@@H]1[C@@H](C/C=C\CCCC(=O)O)[C@@H](O)C[C@H]1O	3
CC(C)C[C@@H](CC(=O)N[C@@H](CCC(=O)O)CC(=O)O)NC(=O)[C@@H]1CNCC[C@H]1NC(=O)C[C@H](CCCN)NC(=O)C[C@H](Cc1c[nH]c2ccccc12)NC(=O)[C@@H]1CNCC[C@H]1N	-20
Cc1ccccc1-c1cncnc1Nc1ccc(F)cc1	8
CN[C@@H]1[C@H](O[C@@H]2O[C@H](CO)[C@@H](N)[C@H](O)[C@@H]2O)O[C@H]2C[C@@H](N)[C@@H](O[C@H]3[C@@H](O)[C@H](O)[C@H](N)C[C@@H]3N)O[C@H]2[C@H]1O	-6
C[C@]12CCC3c4ccc(O)cc4CCC3C1CC(O)C2O (some centres undefined)	9
O=C(O)Cc1nn(Cc2ccc(Br)cc2F)c(=O)c2ccccc12	3
Cc1noc(C)c1-c1cc(N(C)C)ncn1	0
COc1cccc(CC(=O)N2CCc3nc(-c4ccccc4)c4c(c3C2)CO[C@@H](C)C4)c1	-5
CO[C@H]1C=CO[C@]2(C)Oc3c(C)c(O)c4c(O)c(c5c(c4c3C2=O)NC2(CCN(CC(C)C)CC2)N=5)=NC(=O)C(C)=CC=C[C@@H](C)[C@@H](O)[C@@H](C)[C@@H](O)[C@@H](C)[C@@H](OC(C)=O)[C@@H]1C	-4
COC(=O)CC1c2ccccc2C(Cc2ccc(OC)cc2)C(C)N1C(=O)OC (centres undefined)	0
Cc1ccc(S(=O)(=O)NC(=O)O[C@@H]2C(=O)c3cc(Br)ccc3O[C@H]2c2ccc3c(c2)OCO3)cc1	-4
COc1c(C2=CC(=O)N(C)C2=O)c2c(n1C)C(=O)c1ccccc1C2=O	-16
COc1ccccc1CNc1ncncc1-c1ccccc1CN(C)C	-2
CC1=CC[C@@]2(CO)COC(c3ccccc3O)C1C2 (some centres undefined)	1
Cc1cccc(CNc2ccnc(-c3cccnc3)n2)c1	7
CC(C)C[C@@H](CC(=O)N[C@H](CC(=O)N[C@@H]1CCNC[C@H]1C(=O)N[C@H](CC(=O)N[C@@H](CCC(=O)O)CC(=O)O)CC(C)C)C(C)C)NC(=O)[C@@H]1CNCC[C@H]1N	-8
Cc1cccc(CNc2cc(-c3ccoc3)ncn2)c1	-16
C=CCN1c2ccccc2[C@]23C[C@@H](C(=O)OC)N(S(=O)(=O)CCCC)C2=NC(C(=O)OC)=C(C(=O)OC)[C@H]13	0
O=C(c1ccc(F)cc1)C1CCN(CCCCc2ccccc2)CC1	-10
c1ccc2c3c([nH]c2c1)[C@@H]1[C@H]2CC[C@H]([C@H]4CCCN[C@H]42)N1CC3	6
NCCCCN=C(N)N	2&3&4
CC1=C(CCC(=O)O)c2cc3nc(cc4[nH]c(cc5[nH]c(cc1n2)c(C)c5C(C)O)c(C)c4C(C)O)C(C)=C3CCC(=O)O (centres undefined)	1
OC[C@H]1O[C@@H](n2cnc3cncnc32)[C@H](O)[C@@H]1O	0&4
CC(=O)[C@]1(O)Cc2c(O)c3c(c(O)c2[C@@H](O[C@H]2C[C@H](N)[C@H](O)[C@H](C)O2)C1)C(=O)c1c(O)cccc1C3=O	-4
O=C1OC(c2cc(I)c(O)c(I)c2)(c2cc(I)c(O)c(I)c2)c2ccccc21	-3
CC12CC3(O)OC(O1)C1(COC(=O)c4ccccc4)[C@@H]3CC21O[C@@H]1O[C@H](CO)[C@@H](O)[C@H](O)[C@H]1O	-10
COC(=O)[C@@]1(Cc2ccc(OC)cc2)[C@H]2c3cc(C(=O)N(C)C)n(Cc4ccsc4Br)c3C[C@H]2CN1C(=O)c1ccccc1	-4
CC1(C)OC2C(CO)OC(n3cnc4c(=O)[nH]c(N)nc43)C2O1 (centres undefined)	7
CCCCC1=CC2=CC(=O)C(C)(OC(=O)CC)C(=O)C2=CN1c1ccncc1 (centres undefined)	9
CC(=O)OC1CCC2(C)C(=CCC3C2CCC2(C)C3C[C@@H]3O[C@]32C(C)=O)C1 (some centres undefined)	2
Cc1cccc(/C=C\c2ccccc2)n1	-13
C/C(=C\CNc1ncnc2c1ncn2[C@@H]1O[C@H](CO)[C@@H](O)[C@H]1O)CO	-3
C=CCN1c2ccccc2[C@]23C[C@@H](C(=O)OC)N(S(=O)(=O)c4ccc(C(F)(F)F)cc4)C2=NC(C(=O)OC)=C(C(=O)OC)[C@H]13	4
COC(=O)C(Cc1ccccc1)NC(=O)C(N)CC(=O)O (centres undefined)	-1
COC(=O)[C@@]1(Cc2ccc(F)cc2)[C@H]2c3cc(C(=O)N4CCCC4)n(Cc4cc(C)n(C)n4)c3C[C@H]2CN1C(=O)c1ccccc1	-9
COC1=C(OC)C(=O)c2ccccc2C1=O	-3

4 compounds from above, arranged by length of the SMILES, lowest first:
mol	GLA inh pH 4.5
Cc1cccc(/C=C\c2ccccc2)n1	-13
CC1(C)OC2C(CO)OC(n3cnc4c(=O)[nH]c(N)nc43)C2O1 (centres undefined)	7
COC(=O)[C@@]1(Cc2ccc(F)cc2)[C@H]2c3cc(C(=O)N4CCCC4)n(Cc4cc(C)n(C)n4)c3C[C@H]2CN1C(=O)c1ccccc1	-9
C=CCN1c2ccccc2[C@]23C[C@@H](C(=O)OC)N(S(=O)(=O)c4ccc(C(F)(F)F)cc4)C2=NC(C(=O)OC)=C(C(=O)OC)[C@H]13	4

(continued)
mol	GLA inh pH 4.5
NC(CSCC(=O)O)C(=O)O (centres undefined)	-1
Cc1ccc(C2CC(=O)Oc3ccc(O)cc32)cc1 (centres undefined)	-6
COC(=O)[C@@]1(Cc2ccccc2)[C@H]2c3cc(C(=O)N(C)C)n(Cc4c(CO)[nH]cc(C)c4=O)c3C[C@H]2CN1C(=O)c1ccccc1	-7
C[C@@H](CN(C)C)CN1c2ccccc2Sc2ccccc21	-3
CCCCS(=N)(=O)CC[C@H](N)C(=O)O (some centres undefined)	-3
